A1 inh = inhibitors of the anti-apoptotic protein A1, read as caspase activation; caspase activation, % (concentration not given with the values); MEF A1-2A-BIM cells, Caspase-Glo 3/7 luminescence, 3 h; percent of clofoctol response, vehicle zero; 330,000 tested, 0.066% active;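 active means over half of replicate activation scores above 10%, or exactly half above 10 with the replicate mean above 10; inconclusive means replicate mean below 10 yet half the replicates above 10; inactive means over half of replicates below 10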;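 further: wells of about 30 µL received 50 nL stock; many hits fall short of the cut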
Vif A3G = HIV-1 Vif–A3G interaction blockers – biochemical, TR-FRET, GST-Vif 1-94, biotin-A3G peptide, dose response retest, primary screen (AID 1117319). inhibition, %; hits with a dose series show IC50 in µM. TR-FRET GST-Vif / biotin-A3G peptide binding; higher % means a stronger effect; test concentration not given here; strong numbers were not always called active. 260,000 tested, 0.57% active;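 active means above the screen mean plus three standard deviations and confirmed in dose response; inconclusive means results disagree or hit not tested in dose response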;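 further: Vif residues 1-94 fused to GST binding biotinylated APOBEC3G peptide 110-148; 0% = full assay without inhibitor and 100% = GST in place of GST-Vif; retest series ran down from 100 µM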
T cruzi repl = T. cruzi replication inhibition; 300,000 tested, 1.4% active; T. cruzi beta-gal in NIH3T3, luminescence, 90 h; AID 1885; inhibition, % (test concentration not listed);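 active means mean inhibition across valid replicates above about 55%, limit read from the data; inconclusive means mean below that limit but half or more replicates reach it; inactive means mean below it, under half of replicates reach it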;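 further: signal also drops with host cell toxicity which is not excluded here; 0% = plate median of DMSO wells and 100% = zero luminescence signal; higher percent means less beta-gal luminescence so fewer parasites; stock transfer was 50 nL into about 50 µL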
Beta cell apopt = blocks beta cell apoptosis | INS-1E cytokine-induced death, ATP luminescence, 48 h; percent of positive-control rescue, neutral wells zero | protection from apoptosis, % (test concentration not listed) | 300,000 tested, 0.8% active | AID 435005;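 active means all replicates at 75% or more, or half of them and the mean; inconclusive means half reach 75% but not the mean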;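 further: 0% = cytokine-treated negative control wells and 100% = positive control rescue; higher means more ATP so stronger rescue from cytokine killing; wells of about 40 µL received 100 nL stock; the first replicate is given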
RanGTP-Imp inh = disruptors of Ran-importin-beta complex formation – biochemical, FRET, CFP-Ran, YFP-importin-beta, homogeneous, primary screen. cell-free CFP-Ran/YFP-importin-beta FRET ratio. inhibition, % (concentration not given with the values). 300,000 tested, 1.1% active;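 active means most replicates above 15%; inconclusive means exactly half above 15%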;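 further: 0% = DMSO wells and 100% = Ran loaded with GDP instead of GTP; wells of about 40 µL received 100 nL stock; the first replicate is given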
rRNA inh HTS = inhibits bacterial ribosomal RNA function over humanized ribosomes; E. coli WT GFP vs humanized-ribosome RFP mutants, fluorescence, 24 h; hits give low values; DMSO median 0, no signal -100; GFP signal change (wild-type ribosome), % (no concentration beside the values); 350,000 tested, 1.6% active; AID 720706;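 active means significant combined selectivity score with lowered wild-type GFP, culture density cut under 30%, mutant RFP and density less affected; inactive means any of these conditions unmet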; further: one replicate is shown; some compounds called inactive have numbers as strong as hits
Calb FLC = C. albicans growth modulation with fluconazole; C. albicans CaCi-2 (fluconazole-resistant clinical isolate) + fluconazole, Alamar Blue growth, 48 h; growth inhibition, % (test concentration not listed); 300,000 tested, 0.57% active;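 active means most replicates above 75%; inconclusive means exactly half above 75%; inactive means most below 75%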;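 further: all wells also contain fluconazole at 8 µg/ml as a sub-toxic cotreatment; 0% = median of DMSO wells and 100% = median of geldanamycin control wells; wells of about 8 µL received 7.5 nL stock; the first replicate is given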
MLL AF4-AF9 inh = inhibitors of human MLL-AF4/AF9 interaction; AlphaScreen, biotin-AF4 peptide binding to FLAG-AF9; AID 651704; 350,000 tested, 0.47% active; inhibition, % at 10 µM; P42568;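 active means every replicate reaching a set inhibition limit, whatever the replicate mean, cut at about 25% in these data; inconclusive means mean inhibition reaches that limit but some replicates miss it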;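 further: 0% = plate neutral control median and 100% = total signal loss; the record names both 10 and 1 µM as test concentration; the first replicate is given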
Target sequence (P42568 whole entry, looked up): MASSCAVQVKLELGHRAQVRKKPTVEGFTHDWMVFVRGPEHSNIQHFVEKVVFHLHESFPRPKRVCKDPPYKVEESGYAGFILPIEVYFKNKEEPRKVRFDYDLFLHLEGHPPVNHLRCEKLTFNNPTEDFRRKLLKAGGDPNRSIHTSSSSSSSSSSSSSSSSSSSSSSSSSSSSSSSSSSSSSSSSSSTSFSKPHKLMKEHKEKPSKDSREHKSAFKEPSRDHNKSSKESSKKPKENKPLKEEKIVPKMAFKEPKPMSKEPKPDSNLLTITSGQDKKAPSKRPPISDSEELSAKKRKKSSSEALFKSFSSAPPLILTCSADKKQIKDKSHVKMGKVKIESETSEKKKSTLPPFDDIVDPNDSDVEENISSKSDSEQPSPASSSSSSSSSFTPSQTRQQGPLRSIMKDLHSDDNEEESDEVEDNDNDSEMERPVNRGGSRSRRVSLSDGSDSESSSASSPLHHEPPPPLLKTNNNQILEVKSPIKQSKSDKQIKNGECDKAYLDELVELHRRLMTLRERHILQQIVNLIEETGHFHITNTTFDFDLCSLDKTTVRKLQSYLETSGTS
rRNA inh HTS OD600 = further read-out of rRNA inh HTS, marked with its call; OD600 change, %; measured here: OD600 growth;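 optical density of the mix in the first replicate; 0 = DMSO median and -100 = no signal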
rRNA inh HTS RFP = recorded beside rRNA inh HTS, whose call it bears; RFP signal change, %; measured here: RFP humanized mutant strains;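 first replicate; 0 = DMSO median and -100 = no signal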
* = called active by the depositor; u = inconclusive; x = not tested or not shown. Some of the compounds tested (hit frequency here may not be typical).

no. | canonical_smiles | RanGTP-Imp inh | Vif A3G | Beta cell apopt | rRNA inh HTS OD600 | T cruzi repl | rRNA inh HTS | MLL AF4-AF9 inh | A1 inh | rRNA inh HTS RFP | Calb FLC
1 | Cc1ccccc1NS(=O)(=O)c1ccc(C(=O)N2CCN(c3ccccc3O)CC2)cc1 | 4.1 | x | 7 | -8 | 2 | -3 | 1.1 | -0.5 | 16 | 37
2 | Clc1ccc2[nH]c3c(NCCN4CCOCC4)ncnc3c2c1 | 1.3 | -2% | 6 | x | 2 | x | x | -0.5 | x | 5
3 | CCCCCCC1CCC(C(=O)N2CCOCC2)CC1 (centres undefined) | -1.1 | 14% | -3 | -39 | 0 | -29 | -2.0 | 0.0 | -7.4 | -12
4 | Fc1ccc(-c2nc(-c3cccs3)no2)cc1 | 2.8 | 15% | 0 | 13 | -3 | 8 | 6.0 | -6.8 | -2.1 | 0
5 | Cc1noc(C)c1COc1ccc(C(=O)OCC(=O)c2ccc3c(c2)OCCO3)cc1 | 0.9 | -1% | 0 | x | -7 | x | x | -0.8 | x | 11
6 | C[C@H]1CN(Cc2ccccc2)C(=O)[C@@H]1CC(=O)NCc1ccccc1 | -6.3 | x | 0 | 14 | 1 | 6 | -3.6 | 0.5 | -7.2 | -9
7 | CCOC(=O)C(C(=O)OCC)C1CS(=O)(=O)CC1C(C(=O)OCC)C(=O)OCC (centres undefined) | -0.8 | 5% | -6 | x | 4 | x | x | 0.4 | x | 4
8 | CCCCn1c(C2CCCCC2)nc2cc3[nH]c(=O)c(C(C)C)nc3cc21 | 5.0 | x | x | -9 | 23 | -2 | x | 1.8 | 20 | 25
9 | CCN1C(=O)[C@H]2[C@@H](c3ccc(-c4ccc(F)cc4)c(OC)c3)N[C@@](CC(C)C)(C(=O)OC)[C@H]2C1=O | 1.2 | x | 13 | 8 | 16 | 15 | -5.9 | 0.4 | -4.4 | -3
10 | NS(=O)(=O)c1ccc(CCNC(=O)c2cc([N+](=O)[O-])ccc2N2CCOCC2)cc1 | x | -5% | -1 | 13 | x | 4 | 1.2 | 0.6 | -0.6 | x
11 | CCOC(=O)N1CCC(NC(=O)C2CCN(C(=O)N3CCOc4ccccc43)CC2)CC1 | 3.4 | -6% | 5 | x | -5 | x | x | 0.9 | x | -5
12 | O=C(O)c1ccccc1C(=O)c1cccc2ccccc12 | -14 | -3% | 0 | -8 | 1 | 2 | 2.3 | -0.1 | -4.2 | -16
13 | Cc1c(C(=O)Nc2ccncc2)sc2nc(-c3ccccc3)cn12 | 4.2 | -1% | 39 | 13 | 17 | -13 | 2.6 | -1.0 | 0.3 | 0
14 | COc1ccc(C2NC(=O)CCC2[N+](=O)[O-])c(OC)c1OC (centres undefined) | -1.3 | x | -1 | 18 | -1 | 28 | 1.7 | 0.9 | -0.1 | 19
15 | CCOC(=O)C1=C(C)OC(N)=C(C#N)C1c1cc2c(cc1Br)OCO2 (centres undefined) | 7.1 | 20% | -1 | x | -8 | x | x | -0.2 | x | 4
16 | Cc1ccc2nc(-c3ccc(-c4cccc(Cl)c4)cc3)c(NCc3ccccc3)n2c1 | -8.0 | x | 121* | -35 | 14 | -9 | 8.5 | -0.3 | -1.6 | -2
17 | CCOc1ccccc1N1CC(C(=O)N2CCc3ccccc32)CC1=O (centres undefined) | 5.1 | 26% | -1 | x | -9 | x | x | -0.3 | x | 0
18 | Cc1cc(NC(=O)c2noc3c2CCCC3)nn1Cc1ccc(Cl)cc1 | 1.4 | 14% | -6 | x | -19 | x | x | -0.8 | x | 6
19 | Cc1cccn2c(=O)nc(SCC(=O)N3CC(C)OC(C)C3)nc12 (centres undefined) | 3.6 | 1% | -2 | 10 | -10 | 5 | -1.1 | 1.4 | -7.9 | 5
20 | Cc1ccc(N(CC(=O)NC2CCCCC2C)S(=O)(=O)c2c(C)nn(C)c2C)cc1 (centres undefined) | 0.2 | x | 0 | 5 | 18 | 1 | -2.3 | -0.1 | -1.4 | -6
21 | Cc1ccc(OCC(=O)Nc2ccc(C)c(S(=O)(=O)N3CCCCCC3)c2)c([N+](=O)[O-])n1 | 5.6 | x | -4 | 1 | 30 | 0 | 3.4 | -0.7 | 0.8 | -2
22 | CSc1nnc(C)c(=O)n1COC(=O)COc1ccccc1C | 4.3 | x | -3 | x | 3 | x | x | -0.1 | x | 2
23 | NC1=NC2(CCCCC2)N=C(Nc2ccc(F)cc2F)N1 | 0.0 | 4% | -1 | x | -1 | x | x | 0.4 | x | 32
24 | CC(C)n1cnc2c(Nc3cccc(F)c3)nc(NCCO)nc21 | 0.9 | x | -7 | 0 | 12 | -1 | -5.5 | 0.1 | 0.0 | 7
25 | COc1cc2cnc(-c3ccsc3)cc2cc1OC | x | x | 0 | 1 | x | -13 | -4.6 | -1.6 | -17 | x
26 | O=C(c1ccco1)N1CCCN(Cc2cn[nH]c2-c2ccc(-c3ccccc3)cc2)CC1 | 2.0 | x | 4 | -38 | 6 | -21 | 6.1 | 1.9 | -3.3 | 13
27 | CN(C(=O)CS(=O)(=O)c1cn(CC(=O)N2CCCC2)c2ccccc12)c1ccccc1 | 3.9 | x | -6 | 24 | -7 | 14 | -0.3 | 0.2 | 3.1 | 2
28 | CCOC(=O)NC(Nc1cc(C)ccn1)(C(F)(F)F)C(F)(F)F | 7.9 | 12% | -25 | x | 3 | x | x | -0.4 | x | 14
29 | O=C(CSc1nnc(NC(=O)c2ccccc2Cl)s1)Nc1ccc2c(c1)oc1ccccc12 | 3.1 | -7% | -6 | x | -30 | x | x | -0.4 | x | 33
30 | CCCNC(=O)Nc1nccs1 | 3.1 | 12% | -4 | x | -14 | x | x | 0.1 | x | 3
31 | CNS(=O)(=O)c1cccc(C(=O)OCC(=O)c2ccc[nH]2)c1 | x | 16% | 1 | 19 | x | 14 | -3.5 | 0.1 | 0.7 | x
32 | COCC1CCCCN1C(=O)c1cccc(OC2CCN(S(C)(=O)=O)CC2)c1 (centres undefined) | -3.5 | x | x | -1 | 1 | 2 | 3.5 | x | -4.3 | 15
33 | Cc1cccc(N/C(N)=N/c2nc(C)cc(C)n2)c1 | -0.6 | 0% | 1 | x | 4 | x | x | -1.0 | x | -6
34 | CN1CCC(OC(=O)COc2ccccc2)CC1 | 0.5 | 18% | -4 | x | -4 | x | x | -0.3 | x | -6
35 | Cc1ccc([C@@H]2[C@@H]3C(=O)N(C)C(=O)[C@@H]3[C@]3(Cc4ccccc4)C(=O)N(Cc4ccccc4)CC(=O)N23)o1 | 3.1 | x | -2 | 1 | -25 | 8 | 2.3 | -0.3 | -2.3 | 5
36 | CCCCNC(=O)COC(=O)c1ccc(Cl)c(S(=O)(=O)N2CCCC2)c1 | 0.1 | -3% | -2 | x | -5 | x | x | 0.7 | x | 1
37 | COc1ccc(NC(=O)c2cccc(OC(F)F)c2)cc1Cl | 1.7 | 3% | 2 | x | -4 | x | x | -5.1 | x | 1
38 | c1ccc(N2CCOCCOCCOCCOCCOCC2)cc1 | 6.2 | x | -5 | 0 | -28 | 8 | 0.8 | -0.3 | 1.8 | -10
39 | COc1ccc(-n2c(C)cc(C(=O)CCl)c2C)cc1 | 2.7 | u | 38 | 2 | 43 | 2 | 7.3 | 2.8 | 8.6 | -5
40 | Cc1cc(-c2nnc(SCc3cccnc3)o2)no1 | -1.9 | -1% | x | x | -8 | x | x | -0.4 | x | 7
41 | CCOC(=O)Cc1csc(NC(=O)COC(=O)/C=C/c2ccc(OC)cc2)n1 | x | x | -6 | 3 | x | 3 | 4.3 | -0.7 | 0.5 | x
42 | O=c1cc(CN2CCOCC2)c2cc(Cl)ccc2o1 | 1.4 | 4% | 3 | 5 | -16 | 9 | 0.0 | -0.2 | 0.8 | -4
43 | COC(=O)C(CC(C)C)NC(=O)C(N)Cc1ccccc1 (centres undefined) | -1.3 | 3% | 1 | x | 4 | x | x | 0.4 | x | -9
44 | O=C(COc1cccc(F)c1)N1c2ccccc2Sc2ccccc21 | -0.9 | 7% | -2 | x | 27 | x | x | 0.1 | x | 5
45 | CCO[C@@H]1OC(C(=O)N2CCN(C)CC2)=C[C@H](c2coc3ccccc3c2=O)[C@H]1CCCO | 1.1 | 0% | 2 | 3 | 3 | 10 | -1.6 | -0.2 | -7.7 | -8
46 | Fc1ccc(Sc2ccccc2CNC2=NCCN2)cc1 | 0.6 | -1% | 6 | -6 | 63* | -14 | 2.9 | -0.4 | 1.5 | -9
47 | CC1(C)NC(=O)N(CC(=O)Nc2nc(-c3ccc(F)cc3)cs2)C1=O | 2.3 | 6% | -7 | x | -6 | x | x | -2.6 | x | -2
48 | O=C1OC[C@H]2CCCN2C(=O)[C@@H](CC(=O)N(CCO)Cc2ccccc2)C/C=C\C[C@@H]1Cc1ccc(F)cc1 | x | x | -2 | -1 | x | -6 | -0.5 | -0.3 | 31 | x

Entries listed so far with fluorine (ten):
no. | canonical_smiles | RanGTP-Imp inh | Vif A3G | Beta cell apopt | rRNA inh HTS OD600 | T cruzi repl | rRNA inh HTS | MLL AF4-AF9 inh | A1 inh | rRNA inh HTS RFP | Calb FLC
4 | Fc1ccc(-c2nc(-c3cccs3)no2)cc1 | 2.8 | 15% | 0 | 13 | -3 | 8 | 6.0 | -6.8 | -2.1 | 0
9 | CCN1C(=O)[C@H]2[C@@H](c3ccc(-c4ccc(F)cc4)c(OC)c3)N[C@@](CC(C)C)(C(=O)OC)[C@H]2C1=O | 1.2 | x | 13 | 8 | 16 | 15 | -5.9 | 0.4 | -4.4 | -3
23 | NC1=NC2(CCCCC2)N=C(Nc2ccc(F)cc2F)N1 | 0.0 | 4% | -1 | x | -1 | x | x | 0.4 | x | 32
24 | CC(C)n1cnc2c(Nc3cccc(F)c3)nc(NCCO)nc21 | 0.9 | x | -7 | 0 | 12 | -1 | -5.5 | 0.1 | 0.0 | 7
28 | CCOC(=O)NC(Nc1cc(C)ccn1)(C(F)(F)F)C(F)(F)F | 7.9 | 12% | -25 | x | 3 | x | x | -0.4 | x | 14
37 | COc1ccc(NC(=O)c2cccc(OC(F)F)c2)cc1Cl | 1.7 | 3% | 2 | x | -4 | x | x | -5.1 | x | 1
44 | O=C(COc1cccc(F)c1)N1c2ccccc2Sc2ccccc21 | -0.9 | 7% | -2 | x | 27 | x | x | 0.1 | x | 5
46 | Fc1ccc(Sc2ccccc2CNC2=NCCN2)cc1 | 0.6 | -1% | 6 | -6 | 63* | -14 | 2.9 | -0.4 | 1.5 | -9
47 | CC1(C)NC(=O)N(CC(=O)Nc2nc(-c3ccc(F)cc3)cs2)C1=O | 2.3 | 6% | -7 | x | -6 | x | x | -2.6 | x | -2
48 | O=C1OC[C@H]2CCCN2C(=O)[C@@H](CC(=O)N(CCO)Cc2ccccc2)C/C=C\C[C@@H]1Cc1ccc(F)cc1 | x | x | -2 | -1 | x | -6 | -0.5 | -0.3 | 31 | x

Screening data as filed in PubChem BioAssay.
